Source: PubChem BioAssay (several laboratories)
rRNA inh HTS – inhibits bacterial ribosomal RNA function over humanized ribosomes. E. coli WT GFP vs humanized-ribosome RFP mutants, fluorescence, 24 h; active compounds read low; DMSO median 0, no signal -100. GFP signal change (wild-type ribosome), % (concentration not given with the values). hit rate 1.6% among 350,000. AID 720706;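 active = significant combined selectivity score with lowered wild-type GFP, culture density cut under 30%, mutant RFP and density less affected; inactive = any of these conditions unmet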; also: one replicate is shown; some compounds called inactive have numbers as strong as hits
Bfl-1 A1 inh – inhibitors of the anti-apoptotic protein A1, read as caspase activation; MEF A1-2A-BIM cells, Caspase-Glo 3/7 luminescence, 3 h; percent of clofoctol response, vehicle zero; hit rate 0.066% among 330,000; AID 2462; caspase activation, % (concentration not given with the values);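 active = over half of replicate activation scores above 10%, or exactly half above 10 with the replicate mean above 10; inconclusive = replicate mean below 10 yet half the replicates above 10; inactive = over half of replicates below 10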;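 also: wells of about 30 µL received 50 nL stock; many hits fall short of the cut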
RanGTP-Imp inh – inhibitors of RanGTP-importin-beta interaction, primary screen, biochemical, FRET, CFP-Ran, YFP-importin-beta, homogeneous; cell-free CFP-Ran/YFP-importin-beta FRET ratio; inhibition, % (test concentration not listed); hit rate 1.1% among 300,000;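 active = most replicates above 15%; inconclusive = exactly half above 15%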;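 also: 0% = DMSO wells and 100% = Ran loaded with GDP instead of GTP; wells of about 40 µL received 100 nL stock; the first replicate is given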
Vif TR-FRET – HIV-1 Vif–A3G interaction blockers – biochemical, TR-FRET, GST-Vif 1-94, biotin-A3G peptide, dose response retest, primary screen (AID 1117319); inhibition, %, or IC50 in µM where a hit was titrated; TR-FRET GST-Vif / biotin-A3G peptide binding; higher % means a stronger effect; test concentration not given here; strong numbers were not always called active; hit rate 0.57% among 260,000;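 active = above the screen mean plus three standard deviations and confirmed in dose response; inconclusive = results disagree or hit not tested in dose response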;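 also: Vif residues 1-94 fused to GST binding biotinylated APOBEC3G peptide 110-148; 0% = full assay without inhibitor and 100% = GST in place of GST-Vif; retest series ran down from 100 µM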
T cruzi inh – blocks replication of Trypanosoma cruzi; T. cruzi beta-gal in NIH3T3, luminescence, 90 h; inhibition, % (no concentration beside the values); hit rate 1.4% among 300,000; AID 1885;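 active = mean inhibition across valid replicates above about 55%, limit read from the data; inconclusive = mean below that limit but half or more replicates reach it; inactive = mean below it, under half of replicates reach it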;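 also: signal also drops with host cell toxicity which is not excluded here; 0% = plate median of DMSO wells and 100% = zero luminescence signal; higher percent means less beta-gal luminescence so fewer parasites; stock transfer was 50 nL into about 50 µL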
Beta apoptosis – blocks beta cell apoptosis. protection from apoptosis, % (test concentration not listed). hit rate 0.8% among 300,000. INS-1E cytokine-induced death, ATP luminescence, 48 h; percent of positive-control rescue, neutral wells zero;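 active = all replicates at 75% or more, or half of them and the mean; inconclusive = half reach 75% but not the mean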;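 also: 0% = cytokine-treated negative control wells and 100% = positive control rescue; higher means more ATP so stronger rescue from cytokine killing; wells of about 40 µL received 100 nL stock; the first replicate is given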
MLL AF4-AF9 inh – inhibitors of human MLL-AF4/AF9 interaction; P42568; hit rate 0.47% among 350,000; inhibition, % at 10 µM; AlphaScreen, biotin-AF4 peptide binding to FLAG-AF9;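 active = every replicate reaching a set inhibition limit, whatever the replicate mean, cut at about 25% in these data; inconclusive = mean inhibition reaches that limit but some replicates miss it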;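 also: 0% = plate neutral control median and 100% = total signal loss; the record names both 10 and 1 µM as test concentration; the first replicate is given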
Target sequence (P42568 whole entry, looked up): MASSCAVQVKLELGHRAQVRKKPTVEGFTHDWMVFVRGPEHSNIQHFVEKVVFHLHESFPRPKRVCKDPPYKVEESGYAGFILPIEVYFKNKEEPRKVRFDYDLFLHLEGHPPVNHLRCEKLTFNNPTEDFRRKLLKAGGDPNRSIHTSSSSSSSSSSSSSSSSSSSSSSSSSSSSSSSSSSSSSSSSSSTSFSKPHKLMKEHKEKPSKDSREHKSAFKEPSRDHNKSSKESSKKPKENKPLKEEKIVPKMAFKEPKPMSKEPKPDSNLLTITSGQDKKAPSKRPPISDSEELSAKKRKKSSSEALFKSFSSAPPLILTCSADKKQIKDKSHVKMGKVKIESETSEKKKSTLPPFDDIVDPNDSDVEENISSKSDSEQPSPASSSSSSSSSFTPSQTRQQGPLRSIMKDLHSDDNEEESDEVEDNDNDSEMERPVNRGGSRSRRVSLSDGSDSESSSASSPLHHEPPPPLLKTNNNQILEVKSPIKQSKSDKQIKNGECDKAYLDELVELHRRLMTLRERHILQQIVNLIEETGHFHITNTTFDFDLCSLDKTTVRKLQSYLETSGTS
Calb FLC – affects C. albicans growth with fluconazole; growth inhibition, % (no concentration beside the values); hit rate 0.57% among 300,000; C. albicans CaCi-2 (fluconazole-resistant clinical isolate) + fluconazole, Alamar Blue growth, 48 h;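 active = most replicates above 75%; inconclusive = exactly half above 75%; inactive = most below 75%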;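 also: all wells also contain fluconazole at 8 µg/ml as a sub-toxic cotreatment; 0% = median of DMSO wells and 100% = median of geldanamycin control wells; wells of about 8 µL received 7.5 nL stock; the first replicate is given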
rRNA inh HTS OD600 – second read-out of rRNA inh HTS, no call of its own (marks repeat the call); OD600 change, %; measured here: OD600 growth;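 optical density of the mix in the first replicate; 0 = DMSO median and -100 = no signal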
rRNA inh HTS RFP – further read-out of rRNA inh HTS, marked with its call; RFP signal change, %; measured here: RFP humanized mutant strains;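 first replicate; 0 = DMSO median and -100 = no signal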
* hit, by the source's call; ? = inconclusive; . = not tested or not shown; & = joins results of further samples.

(1) Cc1cc(C)c(S(=O)(=O)N(C)CC(=O)NCCN2CCOCC2)c(C)c1
(2) CC(C)C[C@H]1COCCS(=O)(=O)N1Cc1cccc(C(F)(F)F)c1
(3) O=c1c2cc(NC(=S)NCCCN3CCC(Cc4ccccc4)CC3)ccc2nc2n1CCCCC2
(4) S=c1[nH]nc(CCc2nc3ccccc3[nH]2)n1-c1cccc(Cl)c1
(5) C[C@H](CO)N1C[C@H](C)[C@@H](CN(C)Cc2ccncc2)Oc2ccc(NC(=O)CCCCCC(=O)Nc3ccccc3N)cc2C1=O
(6) COc1cc(/C=C/C(=O)OCC(=O)Nc2cc(C(F)(F)F)ccc2N2CCOCC2)ccc1O
(7) N#CCCN(Cc1ccccc1)C(=S)Nc1ccc(F)cc1
(8) CC(C)(C)c1nc2c(s1)CCc1onc(-c3ccc(Cl)cc3)c1-2

entry no.	1	2	3	4	5	6	7	8
rRNA inh HTS	2.1	-8.1	-44.0	-1.0	1.1&25.0	.	-10.4	-0.6
rRNA inh HTS OD600	9.3	-18.7	-40.4	-3.6	3.1&12.2	.	-13.9	1.4
rRNA inh HTS RFP	2.8	2.5	-9.5	-1.3	-0.8&0.1	.	-4.0	1.1
Bfl-1 A1 inh	0.4	0.1	-0.1	0.0	2.2	0.4	0.7	0.5
RanGTP-Imp inh	1.2	1.6	0.9	-2.3	.	-1.4	-2.1	7.5
Vif TR-FRET	.	.	2.4%	.	.	.	.	.
T cruzi inh	-2.9	0.8	57.2*	-3.4	.	-0.1	-28.7	-0.7
Beta apoptosis	-6.6	4.2	-2.5	0.8	-1.5	0.6	-7.8	0.0
MLL AF4-AF9 inh	-16.3	-6.3	13.9	-7.2	?	-0.7	-3.6	-6.9
Calb FLC	30.6	-2.8	14.1	3.2	.	1.0	-12.8	-2.5

(9) CCN(CC)S(=O)(=O)c1cccc(C(=O)Nc2nc3cc4c(cc3s2)OCCO4)c1
(10) CC(C)(C)c1ccccc1NC(=O)c1c(O)c2cccc3c2n(c1=O)CC3
(11) O=C(Nc1ccccc1)C1CCN(C(=O)c2ccc(Br)cc2)CC1
(12) CC1(C(=O)O)CCC(C(N)=O)C1(C)C (stereo not given)
(13) CCCCC1=CC2=CC(=O)C(C)(OC(=O)CC)C(=O)C2=CN1CCCCO (stereo not given)
(14) CCOC(=O)c1cnc2ccc(Cl)cc2c1Nc1ccc(S(=O)(=O)Nc2ncccn2)cc1
(15) CCN(CC)c1ccc(/C=N/N=C(N)N)c(O)c1
(16) CCOc1ccc(-c2c(C)n([O-])c3c([n+]2=O)CCCC3)cc1

entry no.	9	10	11	12	13	14	15	16
rRNA inh HTS	-7.6	.	-5.7	6.8	3.4	.	13.9	.
rRNA inh HTS OD600	-9.0	.	-10.9	-4.2	-2.0	.	20.0	.
rRNA inh HTS RFP	5.9	.	1.3	-6.1	0.8	.	4.4	.
Bfl-1 A1 inh	-0.8	0.5	0.6	-0.5	1.2	1.9	-0.5	0.2
RanGTP-Imp inh	1.4	3.3	-4.4	3.5	0.3	1.1	8.1	2.6
Vif TR-FRET	-1.9%	-1.9%	.	8.4%	.	?	14.4%	2.0%
T cruzi inh	30.0	?	-5.5	-6.4	-2.8	-1.0	42.7	-3.6
Beta apoptosis	5.8	2.8	0.6	-1.2	2.9	-5.0	9.7	.
MLL AF4-AF9 inh	0.4	.	-2.3	0.2	-2.0	.	-18.7	.
Calb FLC	1.5	81.8*	0.2	0.8	21.1	5.0	-0.3	-14.7

(17) O=C(CNC(=O)c1ccc(Cl)cc1)OCc1nc2ccccc2s1
(18) COc1ccc(C)cc1S(=O)(=O)N(CC(=O)NCc1ccc(Cl)cc1)Cc1ccccc1
(19) Cn1cnc([N+](=O)[O-])c1Sc1ccc(Br)cc1
(20) O=C(COc1ccc2c3c(c(=O)oc2c1)CCC3)N[C@@H](CSCc1ccccc1)C(=O)O
(21) Clc1ccc(OCCCNCc2ccccc2)c2ccccc12
(22) CCOCCOc1cccc(C(=O)NC(C)c2ccc3ccccc3c2)c1 (stereo not given)
(23) Cn1c(=O)n(Cc2ccccc2F)c2ccccc21
(24) O=C(O)CC1S/C(=N\N=C2CCCCCCC2)N(c2ccccc2)C1=O (stereo not given)

entry no.	17	18	19	20	21	22	23	24
rRNA inh HTS	5.0	.	6.5	-10.6	-50.5	10.8	.	12.3
rRNA inh HTS OD600	2.9	.	3.8	-9.1	-72.3	11.3	.	7.4
rRNA inh HTS RFP	7.4	.	0.3	-13.0	-10.9	0.6	.	0.1
Bfl-1 A1 inh	0.5	-0.5	0.2	?	0.2	0.5	-1.0	-0.2
RanGTP-Imp inh	-0.3	5.0	4.5	-4.3	0.4	-4.1	40.4*	-3.4
Vif TR-FRET	12.4%	2.1%	4.3%	.	.	.	5.7%	?
T cruzi inh	-14.3	20.3	9.3	-16.0	39.5	0.9	-7.9	2.5
Beta apoptosis	-1.0	12.1	-22.6	.	27.7	.	-15.4	.
MLL AF4-AF9 inh	-5.0	.	-0.6	-3.7	7.1	4.5	.	-1.8
Calb FLC	4.6	0.7	-17.6	0.5	17.4	-4.9	4.0	8.8

The final 3 records of the part above come first, to join the parts.
(22) CCOCCOc1cccc(C(=O)NC(C)c2ccc3ccccc3c2)c1 (stereo not given)
(23) Cn1c(=O)n(Cc2ccccc2F)c2ccccc21
(24) O=C(O)CC1S/C(=N\N=C2CCCCCCC2)N(c2ccccc2)C1=O (stereo not given)
(25) O=C(NC1CC1)c1nc(Cn2ccc([N+](=O)[O-])n2)no1
(26) COc1ccc(NS(=O)(=O)c2cccc(C(=O)Nc3cccc(C(=O)O)c3)c2)cc1
(27) CCCNC(=O)CS(=O)Cc1nc(-c2ccc(OC)cc2)oc1C (stereo not given)
(28) COc1ccc(Cl)cc1NC(=O)N1CCC(C)CC1
(29) N/C(CC(=O)Nc1cccc(C(F)(F)F)c1)=N/O
(30) Cc1c(C)n(CC(O)CNc2ccccc2)c2ccccc12 (stereo not given)
(31) CCOC(=O)CN1C(c2ccccc2O)Nc2ccc(Br)cc2C1c1ccccc1 (stereo not given)
(32) O=C(CN1C(=O)c2cccnc2Oc2ccc(Cl)cc21)NC1CCCC1

entry no.	22	23	24	25	26	27	28	29	30	31	32
rRNA inh HTS	10.8	.	12.3	-14.9	-2.2	6.0	4.0	.	-57.0	-11.2	1.3
rRNA inh HTS OD600	11.3	.	7.4	-1.4	9.0	-0.1	1.2	.	-77.2	-22.9	-3.3
rRNA inh HTS RFP	0.6	.	0.1	-2.7	-1.7	3.2	-0.4	.	-24.4	-23.0	-1.4
Bfl-1 A1 inh	0.5	-1.0	-0.2	-0.3	-1.2	.	0.8	0.3	-0.5	-0.4	0.5
RanGTP-Imp inh	-4.1	40.4*	-3.4	0.6	7.0	-1.3	2.8	-0.8	3.2	-1.5	0.5
Vif TR-FRET	.	5.7%	?	.	-5.6%	6.4%	-3.7%	1.6%	4.0%	2.3%	6.1%
T cruzi inh	0.9	-7.9	2.5	6.4	-11.2	-4.2	33.6	-6.0	-7.9	-16.7	-3.4
Beta apoptosis	.	-15.4	.	-1.6	.	-12.2	1.8	-4.1	-6.5	-3.1	-5.8
MLL AF4-AF9 inh	4.5	.	-1.8	-3.2	-2.3	-5.0	-3.1	.	25.7*	2.0	-2.1
Calb FLC	-4.9	4.0	8.8	-5.1	14.0	-8.6	-28.5	-1.0	-4.4	3.2	-2.8

(33) COc1ccccc1NS(=O)(=O)c1cccc(C(=O)N2CCN(C/C=C/c3ccccc3)CC2)c1
(34) O=C(NNc1ncnc2c1cnn2-c1ccc(F)cc1)c1ccco1
(35) Cc1ccc(C(=O)N2CCC(C(=O)NCc3cccnc3)CC2)cc1
(36) O=C(Nc1nncs1)C1CC(=O)N(C2CCCC2)C1 (stereo not given)
(37) CCCCn1c(N)c(N(CCOC)C(=O)CCCc2cccs2)c(=O)[nH]c1=O
(38) CCN(Cc1ccncc1)C(=O)Cc1cccs1
(39) O=c1cc(CN2CCN(S(=O)(=O)c3ccccc3[N+](=O)[O-])CC2)nc2sccn12
(40) O=C(COC(=O)COc1ccccc1)NC1CCCc2ccccc21 (stereo not given)

entry no.	33	34	35	36	37	38	39	40
rRNA inh HTS	-15.4	0.9	.	8.0	4.0	9.0	2.2	1.6
rRNA inh HTS OD600	-28.3	3.2	.	11.1	7.8	8.9	1.4	-10.6
rRNA inh HTS RFP	-4.5	0.8	.	3.8	-1.9	-4.5	-1.9	-4.0
Bfl-1 A1 inh	0.6	-0.1	0.8	1.0	2.5	0.4	-0.1	1.0
RanGTP-Imp inh	2.2	-0.5	0.9	1.2	.	-2.2	?	-0.2
Vif TR-FRET	.	.	.	.	1.6%	.	11.8%	24.6%
T cruzi inh	48.0	-14.8	-8.9	-6.6	0.6	-7.0	-12.1	-14.2
Beta apoptosis	7.7	4.2	-6.4	.	-5.3	-2.7	-5.1	-6.4
MLL AF4-AF9 inh	6.0	0.5	.	-1.5	0.7	-0.5	-9.9	-3.0
Calb FLC	0.6	19.2	-4.5	4.2	2.5	-4.8	7.8	?

(41) CCc1nc(NCCCn2ccnc2)c2oc3ccccc3c2n1
(42) CC(C)NC(=S)N1CCN(C/C=C/c2ccccc2)CC1
(43) CCOC(=O)/C(C#N)=C1\Nc2ccccc2N=C1N(CC(C)C)CC(C)C
(44) Cc1ccc2c(c1)N(CCC(=O)NC1CCCCC1C)C(=O)CO2 (stereo not given)

entry no.	41	42	43	44
rRNA inh HTS	.	4.9	.	-1.7
rRNA inh HTS OD600	.	-0.4	.	1.5
rRNA inh HTS RFP	.	1.2	.	0.4
Bfl-1 A1 inh	-1.3	-0.1	1.8	-0.1
RanGTP-Imp inh	-0.3	-0.2	30.2*	2.1
Vif TR-FRET	-2.3%	6.4%	6.5%	.
T cruzi inh	8.8	7.9	39.2	14.0
Beta apoptosis	-3.5	.	-12.7	5.5
MLL AF4-AF9 inh	.	0.1	.	2.7
Calb FLC	11.2	3.7	26.8	-0.2

An excerpt (hit frequency here may not be typical).
